FGF22 binding – binders of human FGF22 protein, primary screen, FGF22 synaptogenesis inhibitor project, biophysical, thermal shift, single point; Fibroblast growth factor 22 (Homo sapiens), Q9HCT0; recombinant FGF22 thermal shift, SYPRO orange fluorescence; percent of sucrose octasulfate shift, DMSO zero; calls only at 9.99 µM; 340,000 tested, 1.5% active; AID 651658, 2012;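 active = melting point raised past a set limit in the mean and every replicate; inconclusive = no clear call; three in four hits are not shown here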
LANA-H2B inh – blockers of LANA interaction with H2A/H2B – biochemical, FP readout, HTS, primary screen. inhibition, % (test concentration not listed). AID 2629, 2010. Protein LANA1 (Human herpesvirus 8 type P (isolate GK18)), Q9QR71. 320,000 tested, 0.6% active. cell-free LANA-H2A/H2B peptide, fluorescence polarization; in the data active = inhibition mostly above about 10%, no sharp cut-off; inactive = mostly below about 6.7%;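 also: stock transfer was 7.5 nL into about 10 µL; 0% = median of vehicle wells and 100% = median of positive control wells; one replicate is shown; the record names a cut of 25% in any replicate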
HNF4A DNA FP – change in binding of human HNF4A to DNA, primary screen, biochemical, fluorescence polarization, FITC-DNA. Hepatocyte nuclear factor 4-alpha (Homo sapiens), P41235. 1 h. activity change, % at 10 µM. 360,000 tested, 0.3% active. AID 1224865, 2016; in the data active = activity change above about 30%, passing the limit was not always enough;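 also: controls were the assay level and a saturating level of protein; the project sought stronger binding though the title names inhibitors; some compounds called inactive have numbers as strong as hits; positive values seem to mean higher polarization but the record does not say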
Target sequence (P41235 whole entry, looked up): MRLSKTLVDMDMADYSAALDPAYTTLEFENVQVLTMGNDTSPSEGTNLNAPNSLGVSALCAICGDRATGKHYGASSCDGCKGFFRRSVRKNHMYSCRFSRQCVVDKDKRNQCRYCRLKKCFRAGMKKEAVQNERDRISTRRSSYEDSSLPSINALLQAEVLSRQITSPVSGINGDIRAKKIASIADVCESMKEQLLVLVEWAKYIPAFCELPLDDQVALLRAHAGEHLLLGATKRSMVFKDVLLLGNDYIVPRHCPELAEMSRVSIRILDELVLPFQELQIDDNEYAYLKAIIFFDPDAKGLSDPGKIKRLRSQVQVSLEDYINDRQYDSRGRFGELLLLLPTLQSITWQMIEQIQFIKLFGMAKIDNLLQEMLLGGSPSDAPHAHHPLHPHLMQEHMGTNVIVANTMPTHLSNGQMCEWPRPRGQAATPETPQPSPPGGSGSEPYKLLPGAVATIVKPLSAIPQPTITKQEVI
ALR inh – inhibitors of human ALR sulfhydryl oxidase, primary screen, biochemical, H2O2 detection, HRP-luminol luminescence, single point; purified ALR, DTT oxidation; inhibition, % (no concentration beside the values); 290,000 tested, 3.8% active;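 active = mean and each replicate at 75% or more; inconclusive = only one of the two met; inactive = neither met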;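 also: stock transfer was 7.5 nL into about 7.5 µL; 0% = neutral wells and 100% = wells with inactivated enzyme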
Target sequence (P55789 whole entry, looked up): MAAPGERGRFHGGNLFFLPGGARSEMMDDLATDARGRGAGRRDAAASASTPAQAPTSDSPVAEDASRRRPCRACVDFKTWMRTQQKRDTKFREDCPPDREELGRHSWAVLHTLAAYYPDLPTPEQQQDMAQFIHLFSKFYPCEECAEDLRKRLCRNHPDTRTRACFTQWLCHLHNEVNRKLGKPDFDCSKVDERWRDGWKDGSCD
UCH37 inh – inhibitors of human UCH37 deubiquitinase, primary screen, biochemical, Ub-AMC cleavage, fluorescence. Ubiquitin carboxyl-terminal hydrolase isozyme L5 (Homo sapiens), Q9Y5K5. purified proteasome/UCH37. inhibition, % (concentration not given with the values). 330,000 tested, 0.33% active;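 active = mean of two replicates above 20%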;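 also: 0% = compound-free wells with enzyme and 100% = wells lacking proteasome; stock transfer was 100 nL into about 20 µL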
Target sequence (Q9Y5K5 whole entry, looked up): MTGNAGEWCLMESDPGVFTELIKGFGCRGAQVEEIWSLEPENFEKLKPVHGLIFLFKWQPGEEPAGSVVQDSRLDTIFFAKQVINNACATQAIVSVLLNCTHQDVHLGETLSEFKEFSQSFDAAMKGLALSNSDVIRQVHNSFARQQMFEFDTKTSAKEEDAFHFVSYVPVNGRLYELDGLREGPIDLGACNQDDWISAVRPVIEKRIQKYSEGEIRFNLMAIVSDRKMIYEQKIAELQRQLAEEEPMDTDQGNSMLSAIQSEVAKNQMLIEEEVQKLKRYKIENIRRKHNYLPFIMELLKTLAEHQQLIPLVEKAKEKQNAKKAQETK
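system = Proteasome-associated human UCH37 deubiquitinase | amount = 0.15 nM proteasome as dispensed | medium = pH 7.4 Tris-HCl (50 mM) with ovalbumin, ATP-MgCl2, DTT | incubation = 30 min preincubation with enzyme, 25 min cleavage at room temperature | detection = AMC fluorescence 355/460 nm | read-out basis = percent inhibition | controls = no-proteasome and no-compound wells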
Beta2AR agonist – beta2AR agonists driving receptor internalization, primary screen, cell-based, FAP fluorogen, flow cytometry; Beta-2 adrenergic receptor (Homo sapiens), P07550; Am2.2-beta2AR cells; reference of the scale not given here; response, % (concentration not given with the values); 340,000 tested, 0.43% active;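 active = response above a set limit, near 3 SD of response in nonfluorescent compounds, cut at about 42% in these data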;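 also: stock transfer was 100 nL into about 11 µL; a reference agonist was the positive control; negative values mostly stem from fluorescent compounds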
E coli growth – E. coli growth inhibition, primary screen, OD600; AID 1053175, 2014; OD600 absorbance (no concentration beside the values); Escherichia coli growth, 23 h; hits give low values; 330,000 tested, 0.21% active;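 active = OD600 absorbance below the run mean of sample wells minus 3.6 SD, in any replicate, cut at about 0.56 in these data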;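 also: stock transfer was 300 nL into about 60 µL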
* marks the source's active call; other numbers are inactive results; i = inactive; ? = inconclusive; . = not tested or not shown. Not all compounds are listed; the hit share may differ from the screen's.

Values run as follows: FGF22 binding	LANA-H2B inh	HNF4A DNA FP	ALR inh	UCH37 inh	Beta2AR agonist	E coli growth
1: Cc1cc(S(=O)(=O)NCC(C)C)ccc1OCC(=O)NCc1ccco1
  i	13.3	0.2	-6.3	0.5	2.5	0.722
2: CCN(CC)c1ncnc2c1[nH]c1ccccc12
  .	-0.7	-1.7	.	-0.6	5.9	0.691
3: O=C(c1sc2ccccc2c1Cl)N1CCN(c2ccccc2F)CC1
  .	-0.5	2.0	-9.8	2.9	-6.6	0.7
4: Cc1ccnc(Nc2nc3ccccc3s2)n1
  .	6.7	-0.2	-0.5	3.1	4.9	0.696
5: Cc1ccc(-c2noc(C3CCCN(C(=O)c4ccc(Cl)cc4)C3)n2)o1 (stereo unspecified)
  i	1.6	2.5	1.3	1.6	-7.7	0.669
6: Cc1ccc(CC2CC(=O)N(c3ccncc3)C2=O)cc1 (stereo unspecified)
  .	4.7	-3.2	-9.7	3.4	4.3	0.706
7: C=CCn1c(SCc2cc(=O)n3ccsc3n2)nc2scc(C3CC3)c2c1=O
  .	2.5	-0.7	-5.4	2.1	0.1	0.728
8: COc1ccc(-c2ccc(=O)n(Cc3c(F)cccc3Cl)n2)cc1
  i	0.7	-1.6	-7.3	-11.4	-3.5	0.675
9: O=C(CN1C(=O)/C(=C/c2cccc(Br)c2)SC1=S)NCCCN1CCOCC1
  i	-0.4	0.5	69.2	5.4	-6.5	0.686
10: OCC#CCSc1nnc(-c2cccc3ccccc23)o1
  i	5.1	-0.6	0.4	0.6	5.8	0.686
11: Cc1[nH]c2ccccc2c1/C=N/Nc1cccc(C(=O)O)c1
  i	-5.5	3.0	.	.	-8.8	.
12: CC1CCN(c2ccc3nnc(CCC(=O)Nc4ccc(F)cc4)n3n2)CC1
  i	0.7	1.0	-1.0	3.4	-10.1	0.691
13: CCN(CC)S(=O)(=O)c1cc(C)c(C)cc1Br
  .	0.5	3.9	-3.2	2.3	-0.1	0.645
14: CCCCN1C(=O)C2C(C(=O)Nc3cccc(OC)c3)C3C=CC2(O3)C1C(=O)NC1CCCCC1C (stereo unspecified)
  .	-2.3	2.6	-2.3	-1.3	2.4	0.736
15: O=C(NCCN1CCOCC1)C1CC(=O)N(c2ccc(Cl)cc2)C1 (stereo unspecified)
  i	5.6	-2.5	35.7	0.8	-9.7	0.707
16: Cc1cccc(-c2cnn(-c3ccccc3)c2N)c1
  i	-11.4	-1.8	68.4	4.9	-3.4	0.66
17: COC(=O)c1sc(N2CCN(Cc3ccccc3)CC2)nc1N
  i	-4.2	0.0	1.9	3.4	-1.6	0.603
18: O=C(NC(c1ccccc1)c1ccccc1)c1ccccc1
  .	.	0.8	.	1.5	-1.5	0.711
19: CCCn1c(=S)[nH]c2cc(C(=O)N(CCO)Cc3ccccc3)ccc2c1=O
  i	-1.1	3.7	2.5	3.5	5.7	0.694
20: Cc1cc(C)nc(N2CCCC(C(=O)Nc3cc(F)ccc3C)C2)n1 (stereo unspecified)
  .	4.4	2.7	13.1	-2.5	10.2	0.612
21: CCOc1cc(/C=N/OC(C)=O)ccc1OCc1ccccc1
  .	-2.2	-1.5	-7.7	.	-0.8	.
22: CC(=O)Nc1ccc(NC(=O)CSc2ccc([N+](=O)[O-])cn2)cc1
  i	-0.6	2.3	-9.6	1.8	1.5	0.666
23: CC(=O)Oc1ccccc1C(=O)Nc1ccccc1
  i	-0.7	-2.2	?	-0.7	2.0	0.589
24: Cn1c(=O)cc(OCC(=O)NCCc2ccc(Cl)cc2)c2ccccc21
  i	3.0	-1.2	1.8	5.3	-5.8	0.707
25: COCCCn1c(-c2ccccc2)nc2ccccc2c1=O
  .	4.8	-3.7	-7.6	0.9	0.2	0.738
26: O=C(NNC(=O)c1ccc(Cl)nc1)c1ccc(Br)cc1
  i	-1.2	-1.1	-1.3	0.6	-4.7	0.668
27: CCOc1ccc(Cc2c(C)[nH]c3ccc(C(=O)O)cc3c2=S)cc1
  i	7.5	-3.1	-2.3	4.0	-4.9	0.643
28: CC(=O)N1CCN(S(=O)(=O)c2cccc(C(=O)NNC(=O)c3ccc(Br)cc3)c2)CC1
  i	.	-5.1	.	.	-194.6	.
29: O=[N+]([O-])c1ccc(-c2c(-c3ccccc3)ncc3cc(F)ccc23)cc1
  i	-2.6	-2.5	3.4	1.1	1.1	0.74
30: CCN(CC)C(=O)c1ccc(COc2ccc(Cl)c(C)c2)o1
  i	-1.4	0.3	-9.1	.	-0.6	.
31: COC(=O)c1ccc(C(=O)NC(=S)Nc2nc3c(s2)CCCC3)cc1
  .	3.1	-1.0	.	2.7	0.9	0.68
32: Cn1nc(-c2ccccc2)c(C(=O)Nc2ccc(Cl)cc2)c1Cl
  .	6.9	0.9	-5.6	0.4	-2.2	0.708
33: CCCCC(C(=O)O)C(C)CC(=O)Nc1nccs1 (stereo unspecified)
  i	-2.6	-1.0	-0.5	-0.6	-2.0	0.689
34: O=C(Cc1ccccc1)NNC(=S)Nc1ccc(Cl)cc1
  i	-4.3	-3.0	39.8	5.1	0.5	0.668
35: C[C@@H]1CCC2[C@](C)(CO)[C@@H](O)CC[C@]2(C)[C@@]12CCC(CO)(CCO)O2 (stereo partly specified)
  i	6.4	-1.1	0.5	3.3	-6.8	0.683
36: CCOC(=O)c1c(C)nc(-c2ccccc2)nc1NC(=O)C(C)C
  .	-0.3	4.3	-21.8	2.5	-1.7	0.69
37: O=C(CCNC(=O)c1ccc([N+](=O)[O-])cc1)NCc1ccco1
  i	-1.2	1.7	.	1.9	-7.3	0.644
38: Cc1ccc([N+](=O)[O-])cc1NC1CC(O)C(CO)O1 (stereo unspecified)
  i	.	-2.5	.	1.8	-1.7	0.634
39: CCCc1cc(=O)oc2cc(C)cc(OCC(=O)NCc3ccccn3)c12
  i	-6.3	1.2	-35.3	.	3.0	.
40: COc1ccc(OC)c2sc(NC(=O)CCS(=O)(=O)c3ccccc3)nc12
  i	5.2	-7.5	.	.	8.4	.
41: CCOC(=O)NN1C(=O)c2ccccc2NC1c1cccc(O)c1 (stereo unspecified)
  i	-1.0	-0.4	-18.3	-316.8	-9.8	0.685
42: CC(C)n1cc(/C=C2/NC(=O)NC2=O)c2ccccc21
  i	-6.1	0.1	3.9	5.2	7.8	.
43: COc1ccc(CCN(C)CC(=O)Nc2cc(C)nc3ccccc23)cc1OC
  i	11.7	-2.1	-21.1	6.8	-1.4	0.645
44: CCOC(=O)c1cn(CC)c2cc3c(cc2c1=O)OCO3
  i	-1.3	4.4	-2.6	-5.1	-2.3	0.549
45: CCOC(=O)c1c(NC(=O)CN2CCOCC2)sc2c1CC(C)(C)OC2
  .	0.1	-0.1	9.7	1.7	-2.5	0.739
46: CCN(c1cccc(C)c1)S(=O)(=O)c1cnc[nH]1
  .	1.2	-2.2	-5.0	-0.4	-8.8	0.681
47: O=C(Cc1ccc(Br)cc1)N(Cc1ccccc1)c1ccccn1
  i	-0.2	2.5	-1.5	3.9	-3.0	0.712
48: CC1CCN(C(=O)c2ccc(S(=O)(=O)N3CCCCCC3)cc2)CC1
  i	2.8	0.1	-12.9	3.0	6.3	0.649
49: Cc1cc(O)c(NC(=O)c2ccc(Br)o2)cc1C
  .	1.3	1.2	1.7	-1.1	2.1	0.618
50: COc1ccc2oc(C(=O)OCC(=O)NC3CCCCC3)c(C)c2c1
  i	5.8	-4.1	-1.9	-45.1	-2.2	0.696
51: O=C(Nc1ccc(Nc2ccccc2)cc1)N1CCOCC1
  .	-1.5	-1.8	99.3*	4.6	-2.2	0.65
52: COc1cc(/C=C/C(=O)OCC(=O)NC(=O)NC2CCCC2)ccc1OCC#N
  i	.	-2.8	.	-9.6	6.1	0.679
53: Cc1ccnc(N(C(=O)c2cccs2)C(=O)c2cccs2)c1
  .	-2.0	4.3	-0.3	0.8	-7.0	0.665
54: Cc1ccc(O)c(C(=O)CC(=O)c2ccc(C(C)(C)C)cc2)c1
  i	4.0	-0.6	-11.0	6.1	-0.3	0.693
55: CCCCOC(=O)c1cc(=O)[nH]c2ccccc12
  i	-0.7	-0.6	-6.7	-21.6	-3.0	0.676
56: O=C(Nc1ncc(Cc2ccccc2)s1)C1=NCCN1
  i	3.1	0.8	-2.3	5.8	-1.5	0.694
57: O=c1cc(CN2CCOCC2)c2c(ccc3ccccc32)o1
  i	0.7	1.6	-25.4	0.5	-13.7	0.698
58: COc1ccc(S(=O)(=O)Nc2ccc(S(=O)(=O)N3CCCC3)cc2)cc1
  .	0.1	3.6	-2.4	0.8	2.7	0.643
59: O=C(NCC1CCCO1)c1ccc2c(c1)C(=O)N(C1CCCCC1)C2=O (stereo unspecified)
  .	5.0	3.5	-10.7	3.4	2.3	0.672
60: CCN(CC)C(=O)CSc1nc2c(sc(=S)n2-c2ccccc2)c(=O)n1-c1ccc(OC)c(OC)c1
  i	2.9	1.8	20.7	8.9	6.9	0.678

More records
Values run as follows: FGF22 binding	LANA-H2B inh	HNF4A DNA FP	ALR inh	UCH37 inh	Beta2AR agonist	E coli growth
61: CN1CCN(c2ccccc2NC(=O)c2ccc(N3CCOCC3)c([N+](=O)[O-])c2)CC1
  i	4.7	-1.7	-2.9	1.5	-8.1	0.729
62: CC(C)OCCCn1c(=N)c(S(=O)(=O)c2ccccc2)cc2c(=O)n3ccccc3nc21
  i	2.2	-1.4	2.4	-207.3	13.1	0.738
63: CCCCC1OC23CCCCC2C(C#N)(C#N)C1(C#N)C(=N)O3 (stereo unspecified)
  i	5.9	-3.0	-38.4	-10.6	10.6	0.642
64: O=C(NCc1ccc(Cl)cc1)c1ccncc1
  i	4.2	-2.0	.	2.1	-2.8	0.653
65: CC1(c2ccccc2)NC(=O)N(CC(=O)NNC(=O)c2cccc(Cl)c2)C1=O (stereo unspecified)
  i	2.4	-2.2	9.9	3.8	-3.2	0.687
66: COc1c(OC(C)=O)ccc(/C=C/c2ccc3cccc(OC)c3n2)c1[N+](=O)[O-]
  .	2.5	3.4	7.1	5.7	17.9	0.672
67: COc1ccccc1NS(=O)(=O)c1ccc(C)c(C(=O)NCC(c2ccco2)N2CCCCC2)c1 (stereo unspecified)
  i	-0.3	2.1	2.3	-2.8	-2.1	0.726
68: Cn1c(/C(C#N)=C/c2ccncc2)nc2ccccc21
  i	-3.5	5.3	3.1	-0.1	0.6	0.628
69: Cc1ccccc1NC(=O)CSC(=O)c1ccccc1
  i	3.7	1.9	.	7.5	1.4	0.694

Bioassay records deposited in PubChem by several laboratories.
